Assay outcomes: PubChem BioAssay, National Center for Advancing Translational Sciences (NCATS)
Rango release inh: inhibitors of RanGTP-induced Rango-importin beta complex dissociation; Potency, µM (doses to about 46.1 µM), inactives show at the highest dose activity change, negative = inhibition; 0.071% of 340,000 active; Biochemical FRET Rango-importin beta, RanGTP-induced dissociation; O95149+P62826; active means falling FRET ratio curve, often poorly fitted, with flat reads before Ran was added; inconclusive means other falling curves, or compound fluorescence or quenching; inactive means flat or rising ratio curve;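 note: potency is the fitted concentration of half-maximal effect; % of control where 0% means no effect; nearly all actives have a fitted effect of over 45% in size; -100% = wells without RanGTP and RCC1; the record marks most hits as doubtful in a second field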
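Rango FRET biosensor (snurportin-1 IBB flanked by N-terminal EYFP and C-terminal CFP10) at 0.1 uM, with 0.25 uM importin beta in PBS, 1mM DTT, 0.02% Tween-20, 0.1% BSA. 0.6 uM Ran, 2mM GTP and 0.2 uM RCC1 were then added for 45 min at room temperature. Inhibition read as loss of FRET rise.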
Rango-impB inh: prevents formation of the Rango-importin beta complex. AID 540263. Potency, µM (top dose mostly 92.2 µM), without a hit: at the highest dose inhibition of complex formation. Q14974. 0.031% of 340,000 active. Rango CFP/YFP FRET sensor + importin beta, 45 min; active = rising FRET ratio curve, often small or poorly fitted; inconclusive = mostly compound fluorescence or quenching in the first reads; inactive = flat curves in all reads;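 note: potency is the fitted concentration of half-maximal effect; 0% = DMSO wells and 100% = buffer wells lacking importin beta; nearly all actives have a fitted effect of over 15% in size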
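FRET biosensor Rango (snurportin 1 IBB between N-terminal EYFP and C-terminal Cerulean), 50 nM in PBS/1 mM DTT/0.02% Tween-20/0.1% BSA, preincubated 5 min RT with compound; 0.125 microM importin beta added, 45 min RT, CFP/YFP FRET ratio read.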
GLA inh pH 4.5: inhibitors of human alpha-galactosidase A at pH 4.5. purified enzyme, 4-MU-alpha-Gal fluorescence, pH 4.5. 230,000 tested, under 10 active. activity change, negative = inhibition, % at 105 µM. P06280; inconclusive = small, poorly fitted or top-dose-only inhibition, or a rising curve; inactive = flat fitted curve, though single readings scatter; no compound was filed as active;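 note: 0% = full activity with enzyme and -100% = basal without enzyme; dose as in the result columns while the protocol names 77 µM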
Target sequence (P06280 whole entry, looked up): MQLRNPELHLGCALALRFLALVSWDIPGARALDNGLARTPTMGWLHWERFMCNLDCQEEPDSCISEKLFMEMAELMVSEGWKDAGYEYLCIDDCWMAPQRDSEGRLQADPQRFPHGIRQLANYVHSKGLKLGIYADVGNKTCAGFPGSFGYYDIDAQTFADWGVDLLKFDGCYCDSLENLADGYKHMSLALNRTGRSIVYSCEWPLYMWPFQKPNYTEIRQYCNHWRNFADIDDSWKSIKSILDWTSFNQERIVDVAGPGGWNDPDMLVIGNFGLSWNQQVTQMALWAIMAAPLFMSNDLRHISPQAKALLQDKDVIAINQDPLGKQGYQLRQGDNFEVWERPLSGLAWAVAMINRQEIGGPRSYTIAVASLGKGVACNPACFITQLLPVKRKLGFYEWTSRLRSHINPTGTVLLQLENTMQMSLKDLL
miR-21 FLuc: miR-21 reporter, rising signal; Potency, µM (doses to about 38.3 µM), inactives show top-dose reporter change, positive = more light; 340,000 tested, under 10 active; AID 2288; HeLa miR-21 FLuc reporter, luciferase, 48 h; active = well fitted rising curve with a large enough effect; inconclusive = small, poorly fitted or top-dose-only effect; inactive = no such curve, though single readings can be large or run the other way;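 note: % of control where 0% means no effect; miR-21 action dims this reporter so a rising signal means less miR-21 action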
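HeLa cells endogenously expressing miR-21, stably carrying CMV-driven firefly luciferase with a downstream miR-21 binding site, 2000 cells/well. Titrations up to approximately 40 uM, 48 hours; luciferase luminescence read.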
The depositor's hits bear a star; u = inconclusive; x = no result given; & = joins results of further samples. Not all compounds are listed; count on the stated rates, not on these rows.

Rango release inh	Rango-impB inh	smiles	GLA inh pH 4.5	miR-21 FLuc
-9%	-3.2%	Cc1nc([N+](=O)[O-])cn1CC(=O)c1ccc(F)cc1	x	-1%
0%	0.4%	Cc1ccnc(NC(=O)CS(=O)(=O)Cc2ccccc2)c1	0	-8%
19%	0.9%	C=CCn1c(SCC(=O)c2cccs2)nnc1-c1cccc(OC)c1	-2	-12%
-5%	-3.3%	Cc1nnsc1C(=O)N(Cc1ccccc1)C(C)C	3	-2%
4%	-5.2%	CC[C@@H](C)[C@H](NC(=O)CNC(=O)Cc1c(C)c2c(cc(C)c3c(C)coc32)oc1=O)C(=O)O	x	-3%
-8%&-1%	-2.5%&-1.1%	CC(/C=C\c1cccnc1)=C/C(=O)O	-13&1	0%&-3%
6%	4.6%	COc1cc(OC)cc(C(=O)NCc2ccc3[nH]c(C)cc3c2)c1	-4	5%
6%	0.0%	CCCCn1c(N)c(N(CC(C)C)C(=O)C2CCN(S(=O)(=O)c3ccccc3)CC2)c(=O)[nH]c1=O	x	x
6%	0.5%	CCOC(=O)c1cc(-c2ccccc2)n(CC(=O)NC(C)(C)C)c1C	4	2%
8%	-2.3%	CCCCN(CC)C(=O)c1ccc(-c2ccccc2)cc1	6	-6%
-10%	4.8%	Cc1ccc(NC(=O)C(c2ccc(Cl)cc2)N2CCCCC2)cc1 (stereo unspecified)	7	-5%
-5%	3.4%	O=C(NC1CCS(=O)(=O)C1)c1ccc(N2CCCCC2)c([N+](=O)[O-])c1 (stereo unspecified)	x	-1%
2%	1.8%	COc1cccc(C(=O)c2c(C)c(CCC#N)n3ccccc23)c1	5	-20%
-3%	0.1%	O=C(c1cc(-c2ccccc2Cl)nc2ccc(Br)cc12)N1CCN(c2ccccn2)CC1	x	x
1%	-1.4%	COC(=O)c1ccccc1NC(=O)CNc1ccc(F)c(S(=O)(=O)N2CCOCC2)c1	x	x
-4%	-2.3%	Cc1ccc(S(=O)(=O)CCC(=O)N2CCN(c3ccccc3F)CC2)cc1	x	0%
0%	-2.2%	Cc1ccc(SC[C@H](C)CN2CC[C@H](C)CCC2=O)cc1	x	1%
-4%	-1.6%	O=C(O)c1ccc(/C=N/NC(=O)c2ccc(F)cc2)cc1	9	-7%
-19%	1.1%	CC1(c2ccccc2)NC(=O)N(CC(=O)NCc2cccc(Cl)c2)C1=O (stereo unspecified)	x	15%
u	u	CC(NC(=O)/C(C#N)=C1\N=C(NC(=O)c2cccs2)c2ccccc21)c1ccccc1 (stereo unspecified)	-6	-2%
9%	2.1%	Cc1cc(NC(=O)CSc2nc3c(c(=O)n2Cc2ccccc2)SC(C)C3)no1 (stereo unspecified)	4	-5%
25%	0.2%	O=C(NCCc1c[nH]c2ccccc12)c1ccc([N+](=O)[O-])cc1	-2	-50%
-5%	-1.8%	O=C(Nc1ncc2c(n1)-c1ccccc1OC2)c1ccccc1Cl	10	-20%
18%	-4.1%	CCOc1ccc(S(=O)(=O)N2CCOCC2)cc1NC(=O)CSCc1c(C)noc1C	x	x
17%	-2.8%	Cn1c(=O)c2cc3c(nc2n(C)c1=O)CC(c1ccccc1)CC3=O (stereo unspecified)	-8	1%
0%	-1.6%	Cc1c(C(=O)OCC(=O)NC(=O)NC2CCCCC2)cccc1[N+](=O)[O-]	x	x
4%	1.2%	COc1ccc(NC(=O)CCN2CCN(S(=O)(=O)c3ccc(Br)cc3)CC2)cc1	x	0%
23%	-2.1%	O=C(O)/C=C/C(=O)Nc1cc(F)ccc1F	2	6%
-8%	-3.3%	COc1cccc(NC(=O)Cc2nnc(SCC(=O)NC(C)c3ccccc3)n2C)c1 (stereo unspecified)	7	3%
x	x	Cc1ccc(CC(=O)NCc2cccnc2)cc1	7	3%
-10%	-2.0%	CCOc1cc(/C=N\NC(=O)c2ccc(NC(=O)C(C)(C)C)cc2)ccc1OC(=O)c1ccc(OC)cc1	0	5%
-9%	-0.2%	CC(C(=O)N1CCOCC1)n1cc([N+](=O)[O-])cn1 (stereo unspecified)	2	-2%
1%	0.0%	CCOC(=O)C(C#N)=CN1CCNc2ccccc21	x	x
4%	-1.1%	O=C(Nn1cnnc1)c1ccc(F)c(S(=O)(=O)N2CCCCC2)c1	-4	-2%
-11%	-0.3%	Cc1cc(C(=O)COC(=O)c2cccnc2Cl)c(C)n1-c1c(C)n(C)n(-c2ccccc2)c1=O	7	1%
-5%	0.8%	CCN(CC)CCCN(C(=O)c1ccco1)c1nc(-c2ccc(Cl)cc2)cs1	x	3%
11%	0.0%	COc1ccc(CN2Cc3cccc4c3[C@@H](CC2=O)[C@H](O)[C@H](O)C4)cc1	x	x
2%	0.4%	C=C1C(=O)OC2C=C(CO)CCC=C(CO)CC(OC(=O)C(C)C)C12 (stereo unspecified)	x	x
-1%	-1.1%	CC(Sc1ccc(S(=O)(=O)N2CCN(C)CC2)cn1)C(=O)NC1CCCCC1 (stereo unspecified)	x	x
7%	-1.8%	O=C(Cc1ccccc1)NCCSCc1ccc(Cl)cc1	-16	-5%
0%	0.8%	Fc1ccc(N2CCN(c3nc(CN4CCOCC4)nc4scc(-c5ccccc5)c34)CC2)cc1	u	30%
7%	2.2%	COc1ccc(-c2csc(NC(=O)Cc3ccccc3)n2)cc1OC	x	14%
0%	0.7%	CCCC(=O)Nc1cc2c3c(c1)CCN3C(=O)CC2	x	3%
-2%	2.1%	Cc1ccc(SC(C)C(=O)NCc2ccncc2)cc1 (stereo unspecified)	-21	4%
0%	0.7%	CC(Oc1ccc(Br)cc1)C(=O)Nc1ccc(S(=O)(=O)N(C)C2CCN(C)CC2)cc1 (stereo unspecified)	x	x
2%	-5.8%	COc1ccc(/C(C)=N/NC(=O)CNC(=O)c2cccs2)cc1	3	-5%
-6%	-3.0%	Cc1ccc(S(=O)(=O)N2CCN(c3ncnc4scc(-c5ccccc5)c34)CC2)cc1	x	x
-12%	-1.5%	COc1cc(OC)cc(-c2cc3ccc(OC)cc3cn2)c1	x	x
8%	1.1%	Cc1ccc2sc(N(CCCN(C)C)C(=O)CN3C(=O)c4ccccc4C3=O)nc2c1C	-9	-3%
-3%	1.2%	CCOc1ccc(NC(=S)NC(=O)/C=C/c2ccc(Br)cc2)c([N+](=O)[O-])c1	4	-7%
26%	5.4%	C=CCSc1nnc2c(n1)OC(C)=Nc1ccc(Br)cc1-2	1	-1%
-10%	-0.5%	Cc1ccc(-c2nn(C)c(=O)c3ccccc23)cc1CNC(=O)NC1CCCCC1	2	4%
-7%	1.4%	Fc1ccc(OCCn2cnc(Cl)c2Cl)cc1	0	-18%
10%	-2.5%	CC(=O)C(CC(=O)N1CCCc2ccccc21)C(=O)Nc1ccc(F)cc1 (stereo unspecified)	0	-1%
-7%	-0.3%	O=C(NC1CCCc2c1cnn2-c1cc(F)cc(F)c1)c1ccncc1 (stereo unspecified)	x	4%
1%	0.5%	CC(=O)NC(CCCCNC(=S)NC1CCCCC1)C(=O)O (stereo unspecified)	17	-2%
4%	2.1%	CCC(C(=O)NC1CCCCCC1)n1nc(C)n2c(cc3occc32)c1=O (stereo unspecified)	x	-6%
-12%	-1.2%	O=C(O)c1ccc(/C=N/NC(=O)c2cc(-c3ccc4c5c(cccc35)CC4)n[nH]2)cc1	-8	-7%
-30%	u	CC(=O)c1ccc(NS(=O)(=O)c2ccc(N/C=C/C(=O)c3ccc(F)cc3)cc2)cc1	-8	-29%
7%	-0.5%	COc1cccc(NC(=O)N2CCCC(C(=O)NC3CCCCC3C)C2)c1 (stereo unspecified)	x	13%

Following part.
Rango release inh	Rango-impB inh	smiles	GLA inh pH 4.5	miR-21 FLuc
u	u	CCOc1ccc(/C=N/NC(=O)c2[nH]ncc2Br)c(O)c1	2	-14%
2%	0.1%	CC1CCc2cc(F)ccc2N1C(=O)CSc1nnc2c(n1)[nH]c1ccccc12 (stereo unspecified)	9	2%
-3%	-1.8%	CCC(C(=O)Nc1ccccc1Cl)n1nc(C)c2c(C)n(-c3ccccc3)nc2c1=O (stereo unspecified)	x	0%
13%	-1.8%	Cc1cc(NC(=O)CN2C(=O)NC(C)(CCc3ccccc3)C2=O)no1 (stereo unspecified)	4	-1%
-17%	2.2%	Cc1ccccc1NC(=S)NC1(C)CCS(=O)(=O)C1 (stereo unspecified)	-2	-2%
11%	0.0%	Cc1[nH][nH]c(=O)c1C	x	x
1%	0.6%	Cc1cc(SCC(=O)OCC(=O)c2c(N)n(C)c(=O)n(C)c2=O)c(C)cc1Br	-5	4%
-18%	-3.0%	O=C(COc1ccc2c3c(c(=O)oc2c1)CCC3)Nc1ccc(CN2CCOCC2)cc1	x	1%
6%	-0.4%	COc1ccccc1C(CNC(=O)c1cccc(S(=O)(=O)Nc2ccc(C)cc2)c1)N(C)C (stereo unspecified)	x	-1%
0%	-1.6%	Cc1cnc(C(=O)OCC(=O)N2CCC(C)CC2)cn1	x	x
12%	0.9%	CN(CC(=O)Nc1ccc(F)c(F)c1F)C(=O)C1=COCCO1	x	0%
-1%	u	Cn1c(N)c(C(=O)CSc2nnnn2-c2ccccc2)c(=O)n(C)c1=O	9	4%
6%	2.7%	O=S(=O)(c1ccc(OCC(O)CN2CCC(Cc3ccccc3)CC2)cc1)N1CCOCC1 (stereo unspecified)	-7	-5%
5%	-5.4%	COc1cc(OC)nc(Oc2ccccc2C(=O)Oc2ccc(Cl)cc2)n1	-17	0%
4%	-1.3%	COc1ccc(Cl)cc1N1CC(c2nc3ccccc3[nH]2)CC1=O (stereo unspecified)	-2	-6%
-5%	2.1%	Cc1ccc(S(=O)(=O)N(C)c2ccc(OCC(=O)OCc3cccc(Br)c3)cc2)cc1	x	x
2%	3.9%	CC(C)(C)C(O)(CC#CCN1CCCC1)c1ccccc1 (stereo unspecified)	3	-2%
24%	-0.1%	CCOC(=O)c1cnn(Cc2ccc(C)cc2)c1N	-2	-9%
-3%	0.5%	O=C(O)C(C(=O)Oc1ccccc1)C(C(=O)O)C(=O)Oc1ccccc1 (stereo unspecified)	x	x
10%	-0.3%	COc1ccccc1-n1c(SCC(=O)Nc2cc(C)on2)nc2c(c1=O)SCC2	-3	-1%
4%	3.2%	CC(C)OCCCNC(=O)c1ccncc1	-4	8%

A different layout for 2 compounds above.
Results follow in this order: Rango release inh, Rango-impB inh, GLA inh pH 4.5, miR-21 FLuc
Cc1ccc(SC(C)C(=O)NCc2ccncc2)cc1 (stereo unspecified)
→ -2%, 2.1%, -21, 4%
CC(C)(C)C(O)(CC#CCN1CCCC1)c1ccccc1 (stereo unspecified)
→ 2%, 3.9%, 3, -2%

Single records, as listed above. Order of values: Rango release inh, Rango-impB inh, GLA inh pH 4.5, miR-21 FLuc
CC(Oc1ccc(Br)cc1)C(=O)Nc1ccc(S(=O)(=O)N(C)C2CCN(C)CC2)cc1 (stereo unspecified) is entered as 0%, 0.7%, x, x
Cc1cc(NC(=O)CSc2nc3c(c(=O)n2Cc2ccccc2)SC(C)C3)no1 (stereo unspecified) is entered as 9%, 2.1%, 4, -5%
O=C(O)C(C(=O)Oc1ccccc1)C(C(=O)O)C(=O)Oc1ccccc1 (stereo unspecified) is entered as -3%, 0.5%, x, x
COC(=O)c1ccccc1NC(=O)CNc1ccc(F)c(S(=O)(=O)N2CCOCC2)c1 is entered as 1%, -1.4%, x, x
CC(C)(C)C(O)(CC#CCN1CCCC1)c1ccccc1 (stereo unspecified) is entered as 2%, 3.9%, 3, -2%
